# Compound activity as filed in PubChem.
# miR-21 FLuc: raises the signal of a miR-21 reporter; HeLa miR-21 FLuc reporter, luciferase, 48 h; Potency, µM (top dose mostly 38.3 µM), inactives show at the top dose reporter change, positive = more light; 340,000 tested, under 10 active; active = well fitted rising curve with a large enough effect; inconclusive = small, poorly fitted or top-dose-only effect; inactive = no such curve, though single readings can be large or run the other way;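 also: % of control where 0% means no effect; miR-21 action dims this reporter so a rising signal means less miR-21 action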
#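 Compounds were titrated across several concentrations (up to approximately 40 uM) and incubated 48 hours with HeLa miR-21-FLuc reporter cells (miR-21 target sequence downstream of FLuc, endogenous miR-21). Readout was firefly luciferase luminescence after lytic detection reagent.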
# Rango dissoc inh: inhibitors of RanGTP-induced Rango-importin beta complex dissociation | O95149+P62826 | Biochemical FRET Rango-importin beta, RanGTP-induced dissociation | Potency, µM (top dose mostly 46.1 µM), inactives show at the highest dose activity change, negative = inhibition | actives 0.071% (n = 340,000); active means falling FRET ratio curve, often poorly fitted, with flat reads before Ran was added; inconclusive means other falling curves, or compound fluorescence or quenching; inactive means flat or rising ratio curve;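 also: potency is read from the fitted curve at half-maximal effect; % of control where 0% means no effect; nearly all actives have a fitted effect of over 45% in size; -100% = wells without RanGTP and RCC1; the record marks most hits as doubtful in a second field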
#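 Rango/importin beta premix (0.1/0.25 uM final), PBS + 1 mM DTT + 0.02% Tween-20 + 0.1% BSA; cpd 5 min RT; FRET pre-read; + RanGTP-RCC1 (0.6 uM Ran, 2 mM GTP, 0.2 uM RCC1); 45 min RT; FRET post-read, ex 430, em 486/530 nm.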
# GLA inh pH 4.5: inhibitors of human alpha-galactosidase A at pH 4.5 | P06280 | AID 1467 | activity change, negative = inhibition, % at 105 µM | 230,000 tested, under 10 active | purified enzyme, 4-MU-alpha-Gal fluorescence, pH 4.5; inconclusive = small, poorly fitted or top-dose-only inhibition, or a rising curve; inactive = flat fitted curve, though single readings scatter; no compound was filed as active;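 also: 0% = full activity with enzyme and -100% = basal without enzyme; dose as in the result columns while the protocol names 77 µM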
# Target sequence (P06280 whole entry, looked up): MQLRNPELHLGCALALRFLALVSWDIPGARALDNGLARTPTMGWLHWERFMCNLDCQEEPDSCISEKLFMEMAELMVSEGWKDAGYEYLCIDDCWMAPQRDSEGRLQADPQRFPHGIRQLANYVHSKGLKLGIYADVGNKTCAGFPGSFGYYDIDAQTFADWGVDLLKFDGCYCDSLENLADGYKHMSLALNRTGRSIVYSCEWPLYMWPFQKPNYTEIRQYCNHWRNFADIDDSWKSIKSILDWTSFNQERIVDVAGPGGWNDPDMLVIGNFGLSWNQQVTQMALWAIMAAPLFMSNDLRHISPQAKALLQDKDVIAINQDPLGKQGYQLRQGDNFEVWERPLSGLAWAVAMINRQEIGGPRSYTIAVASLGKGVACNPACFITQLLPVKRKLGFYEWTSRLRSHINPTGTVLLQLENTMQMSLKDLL
# Rango-impB inh: Rango-importin beta binding inhibition; actives 0.031% (n = 340,000); AID 540263; Rango CFP/YFP FRET sensor + importin beta, 45 min; Q14974; Potency, µM (highest dose often 92.2 µM), without a hit: at the top dose inhibition of complex formation; active = rising FRET ratio curve, often small or poorly fitted; inconclusive = mostly compound fluorescence or quenching in the first reads; inactive = flat curves in all reads;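 also: potency is read from the fitted curve at half-maximal effect; 0% = DMSO wells and 100% = buffer wells lacking importin beta; nearly all actives have a fitted effect of over 15% in size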
#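 FRET biosensor (snurportin 1 IBB flanked by EYFP and cerulean), 50 nM, with compound 5 min, then 0.125 microM importin beta in PBS, 1 mM DTT, 0.02% Tween-20, 0.1% BSA. CFP/YFP ratio read after 45 min at room temperature; pre-read flags interference.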
# * hit, by the source's call; ? = inconclusive; · = no result given; & = joins results of further samples. These rows are one share of the data (hit frequency here may not be typical).
SMILES,miR-21 FLuc,Rango dissoc inh,GLA inh pH 4.5,Rango-impB inh
CC(Oc1ccc2c3c(c(=O)oc2c1)CCCC3)C(=O)NCCCn1ccnc1 (stereo not drawn),-0.8%,?,·,-0.1%
CCOC(=O)C(CC)(CC)/C(C)=N/NC(=O)CC#N,1.2%,0.1%,-2.9,3.6%
CCOC(=O)c1ccc(NC(=O)c2c(N)n(C)c(=O)[nH]c2=O)cc1,·,-5.1%,·,8.1%
O=C(Nc1ccccc1Cl)NC1(C(=O)NCC2CCCO2)CCCCC1 (stereo not drawn),-2.1%,19.5%,·,-1.4%
CC(C)C(=O)Nc1csc(C(F)(F)F)c1-c1ccccc1,-0.4%,-2.1%,-7.7,1.6%
Cc1cc(OC(=O)c2ccc(Cl)cc2Cl)nc(C)n1,-7.7%,25.1%,-2.8,4.5%
COc1cccc(CC(=O)Nc2cccc3ccccc23)c1,-10.2%,4.8%,·,-1.2%
CCOc1ccc(-n2nc(C(=O)NCCOC)c3ccccc3c2=O)cc1,-6.5%,8.8%,-3.9,0.4%
CCN(CC)CCNC(=O)c1c(O)c2cc(OC)c(OC)cc2[nH]c1=O,-1.8%,6.0%,4.3,2.4%
COc1cc(/C=N/NC(=O)COc2ccc(-n3cnnn3)cc2)ccc1OCC(N)=O,-3.2%,10.8%,-3.8,-3.2%
CCc1cc2c(=O)n(-c3ccccc3)c(SCC(N)=O)nc2s1,-2.4%,-7.0%,·,-3.7%
COc1ccc(C(=O)COC(=O)c2cccnc2SC)cc1,-1.5%,0.4%,4.6,2.4%
CC1(C)Oc2ccc(C(=O)N/N=C/c3ccc(O)cc3)cc2NC1=O,4.9%,-7.5%,·,0.5%
Cc1cc(F)ccc1NC(=O)C1CCCO1 (stereo not drawn),-2.3%,-11.9%,3.1,5.2%
N#Cc1cc(NC2CCCC2)c([N+](=O)[O-])cc1C#N,-28.1%,17.7%,5.6,10.5%
CC1CCCCC1NC(=O)COC(=O)c1c2c(nc3ccccc13)/C(=C\c1ccco1)CC2 (stereo not drawn),·,2.31µM*,·,?
CCOC(=O)N1CCN(Cc2nc3c(c(=O)n(C)c(=O)n3C)n2Cc2cccc(C)c2)CC1,-11.2%,-14.9%,0.2,-6.7%
Cc1cccc(NS(=O)(=O)c2cccc(C(=O)NNC(=O)c3ccccc3O)c2)c1,·,2.4%,·,-0.2%
CCOC(=O)CCCc1ccc(/C(C)=N/NC(=S)NC)cc1,5.3%,24.8%,-1.8,1.8%
COC(=O)c1cc(S(=O)(=O)NCC2CCN(Cc3ccc(C)cc3)CC2)cn1C,1.6%&-5.8%,0.1%,·,-4.3%

# Entries above that have a Cl atom:
SMILES,miR-21 FLuc,Rango dissoc inh,GLA inh pH 4.5,Rango-impB inh
O=C(Nc1ccccc1Cl)NC1(C(=O)NCC2CCCO2)CCCCC1 (stereo not drawn),-2.1%,19.5%,·,-1.4%
Cc1cc(OC(=O)c2ccc(Cl)cc2Cl)nc(C)n1,-7.7%,25.1%,-2.8,4.5%

# Later entries:
SMILES,miR-21 FLuc,Rango dissoc inh,GLA inh pH 4.5,Rango-impB inh
COc1c(C(=O)NNC(=O)c2ccccc2Cl)csc1Br,-48.8%,1.3%,-4.2,-0.3%
Cc1ccc(CN2CCN(Cc3ccc(O)cc3)CC2CCO)o1 (stereo not drawn),-1.3%,1.7%,6.6,-1.3%
C/C(=N\NC(=O)CN(c1ccccc1)S(C)(=O)=O)c1ccccc1O,23.6%,-1.7%,-11.0,-5.1%
CN(C1CCCCC1)S(=O)(=O)c1ccc(-n2cnnn2)cc1,-6.9%,0.9%,-0.9,0.0%
FCCCOc1ccc(-c2ccnc(-c3ccccc3)n2)cc1,-26.2%,-27.5%,-8.2,1.2%
C=CCOc1nc(N(C)C)nc(N(C)C)n1,-7.9%,1.5%,-20.3,-1.5%
O=C(CCS(=O)(=O)c1ccccc1)N1CCN(c2ccc(F)cc2)CC1,-40.7%,-13.1%,·,-0.9%
COCc1cc(/C=N\NC(=O)Cc2ccc(Cl)cc2)ccc1OC,-18.6%,1.8%,3.1,0.0%
O=C1N[C@@H](Cc2ccccc2)C(=O)N2[C@@H]1C[C@@]1(Br)c3ccccc3N(S(=O)(=O)c3ccccc3)[C@@H]21,·,-10.1%,·,-2.0%
CN1C(=O)[C@H]2[C@@H](/C=C/c3ccccc3)N3C(=O)CN(Cc4ccccn4)C(=O)[C@@]3(Cc3ccccc3)[C@H]2C1=O,·,24.3%,·,0.6%
CCn1c(SCC(=O)N2CCCCCC2)nc2c(c1=O)SCC2,1.2%,6.4%,·,?
COc1cccc(/C=N/N2CCN(c3ccccc3OC)CC2)c1,-55.1%,-1.6%,5.1,3.7%
CCOC(=O)[C@@H]1[C@H]2COc3cc(OC)ccc3[C@H]2N2C(=O)N(c3ccc(Br)cc3)C(=O)[C@]12C,·,12.4%,·,3.8%
O=C(N/N=C1\CCCc2ccccc21)c1ccccc1Cl,-41.8%,26.3%,11.8,2.4%
CSc1cc(-c2ccncc2)nc(-c2ccc(Cl)cc2)c1,-8.5%,2.7%,·,0.0%
Cc1ccc(C(=O)O/N=C/c2ccc(N(C)C)cc2)cc1,-1.1%,-9.5%,-0.4,-3.5%
CC(C)N(Cc1ccccc1)S(=O)(=O)c1cccs1,-4.6%,-2.9%,·,0.6%
Cc1oc(-c2ccc(Cl)cc2)cc1C(=O)NC1CCN(Cc2ccccc2)CC1,-1.0%,-14.8%,-14.6,-2.6%
CCCCN(C(=O)CNC(=O)c1ccco1)C(C(=O)NC1CCCCC1)c1ccc(OC)cc1OC (stereo not drawn),-11.5%,-0.2%,-1.6,?
Cc1ccc(C(=O)Nc2nc(-c3cc(Cl)sc3Cl)cs2)cc1,-3.4%,-4.3%,-3.4,-0.3%
Cc1ccc(S(=O)(=O)/N=C(/Nc2ccc(O)c(C(=O)O)c2)c2ccccc2)cc1,·,7.3%,·,-0.2%
C/C(=N\NC(=O)CC#N)c1ccc(Oc2ccccc2)cc1,17.0%,5.0%,8.3,0.8%
O=C(CN1C(=O)CCSc2ccc(S(=O)(=O)N3CCOCC3)cc21)Nc1ccccc1Cl,-4.9%,16.9%,·,0.4%
CCOC(=O)c1cc(CC)sc1NC(=O)Cc1ccsc1,-11.2%,24.3%,-3.2,4.2%
CCOc1ccc(OCCCCNCCN)cc1,0.3%,·,4.8,·
CC(C)(C)OC(=O)C(Cc1ccc(OC(C)(C)C)cc1)NC(=O)CNC(=O)OCc1ccccc1 (stereo not drawn),10.9%,0.5%,-12.8,-2.1%
CC(C)[C@H](NC(=O)N1CC(=O)Nc2ccccc21)C(=O)N1CCC[C@@H]1C(=O)O,-7.5%,3.0%,·,-8.0%
COC(C/C=C/[C@H](O)[C@H](C)OCc1ccccc1)OC,·,-6.0%,·,-1.9%
CC(C(=O)NC1C=CS(=O)(=O)C1)N1C(=O)/C(=C\c2ccccc2)SC1=S (stereo not drawn),11.5%,7.8%,·,1.4%
COc1cc(/C=C(\NC(=O)c2ccccc2)C(=O)Nc2nccs2)ccc1OC(C)=O,5.2%,0.6%,·,-0.6%
CCOC(=O)CCNC(=O)N1CCCC(CNS(=O)(=O)c2cccs2)C1 (stereo not drawn),0.7%,-9.1%,5.1,0.0%
O=C(Nc1ccccc1-c1nnn(CC(=O)N2CCCc3ccccc32)n1)c1ccc(Cl)cc1,0.0%,3.1%,0.1,-2.3%
COc1ccc(CN(Cc2cc3ccc(C)cc3[nH]c2=O)Cc2nnnn2C2CCCC2)cc1,12.7%,7.9%,-13.2,0.6%
Cc1c(Cl)cccc1NS(=O)(=O)c1c(C(=O)N2CCOCC2)c(C)n(C)c1C,0.3%,-4.7%,·,0.1%
COc1ccc(N2C(=O)C(CC(=O)O)S/C2=C\C(C)=O)cc1 (stereo not drawn),0.3%,2.0%,-2.8,-1.7%
COc1ccc(Cc2nnc(SCC(=O)Nc3nc(C)cs3)o2)cc1,-7.6%,-3.5%,-2.9,-2.4%
COc1cccc(N(CC(=O)N2CCOCC2)S(C)(=O)=O)c1,2.1%,11.2%,·,?
O=c1[nH][nH]c2nc(C(F)(F)F)cc(C(F)(F)F)c12,-3.3%,8.4%,5.7,3.7%
COC(=O)C1CCN(C(=O)COC(=O)CCc2nc3ccccc3c(=O)[nH]2)CC1,0.8%,1.9%,-0.3,-4.3%
O=C(COC(=O)CNC(=O)c1ccco1)NCc1ccc(F)cc1,2.3%,-10.5%,7.2,-0.3%

# 4 compounds already listed, arranged by the value under miR-21 FLuc, high to low:
SMILES,miR-21 FLuc,Rango dissoc inh,GLA inh pH 4.5,Rango-impB inh
COc1cccc(N(CC(=O)N2CCOCC2)S(C)(=O)=O)c1,2.1%,11.2%,·,?
COC(=O)C1CCN(C(=O)COC(=O)CCc2nc3ccccc3c(=O)[nH]2)CC1,0.8%,1.9%,-0.3,-4.3%
COc1ccc(N2C(=O)C(CC(=O)O)S/C2=C\C(C)=O)cc1 (stereo not drawn),0.3%,2.0%,-2.8,-1.7%
O=c1[nH][nH]c2nc(C(F)(F)F)cc(C(F)(F)F)c12,-3.3%,8.4%,5.7,3.7%

# Later entries
SMILES,miR-21 FLuc,Rango dissoc inh,GLA inh pH 4.5,Rango-impB inh
CC(C)CCNC(=O)c1onc(CSc2ccc(Cl)cc2)c1C(=O)NCCC(C)C,-0.2%,-1.0%,1.9,0.2%
CSc1ccc(CNC(=O)Cn2nc(C)c3c(C)n(-c4ccc(C)cc4)nc3c2=O)cc1,-0.2%,8.6%,·,-0.3%
COc1cc(C)ccc1OCCOCCOc1ccccc1[N+](=O)[O-],-21.1%,-15.9%,-2.2,-1.1%
CCOC(Cn1cc([N+](=O)[O-])c(=O)[nH]c1=O)OCC,·,14.5%,·,3.3%
COc1ccc(C2(C)NC(=O)N(CC(=O)N(c3ccccc3)C3CCS(=O)(=O)C3)C2=O)cc1 (stereo not drawn),·,3.5%,·,1.6%
CCOc1ccc(S(=O)(=O)NCc2cccnc2)c2ccccc12,2.2%,-8.1%,·,1.0%
COc1ccc(S(=O)(=O)Nc2cccnc2)cc1,10.8%,19.3%,-5.1,4.8%
COc1ccc(S(=O)(=O)N2CCN(C(=O)c3ccccn3)CC2)cc1,·,0.4%,·,2.7%
CS(=O)(=O)c1ccc2nc(NC(=O)C3C4C=CC(C4)C3C(=O)O)sc2c1 (stereo not drawn),-5.3%,2.1%,2.5,-1.4%
CC(C)(C)C(=O)N/C(N)=N/c1nc2ccccc2o1,-3.4%,8.9%,2.3,-3.8%
COc1ccc(OC)c(CCNC(=O)c2ccc3c(c2)N(Cc2ccccc2)CCS3)c1,-3.2%&14.8%,-2.7%,·,-3.0%
CC(NC(=O)c1ccccc1F)c1cccc2ccccc12 (stereo not drawn),·,1.9%,·,0.8%
CCNc1nc(SC)nc(N(C#N)CC(=O)OC)n1,4.1%,24.8%,1.7,-0.6%
COc1ccc(NC(=O)Cc2ccsc2)cc1S(=O)(=O)N1CCOCC1,·,-3.9%,·,3.4%
Cc1cccc(OCC(=O)N/N=C/c2cc([N+](=O)[O-])ccc2N2CCOCC2)c1,-7.7%,-1.6%,-11.1,-0.1%
Cc1ccccc1NC(=S)NCc1ccc(Cl)cc1,-1.4%,20.5%,-2.7,-1.7%
O=C(NNS(=O)(=O)c1ccccc1)c1ccc(O)cc1,-11.7%,3.9%,-0.2,0.6%
C=CCNC(=O)c1ccc(C)cc1Cl,-6.8%,0.0%,-1.4,3.9%
COC(=O)c1ccc(COC(=O)c2ccccn2)cc1,-5.7%,1.1%,-4.9,3.1%
CCC(=O)N1CCc2cc(S(=O)(=O)CCC(=O)Nc3ccc(C(C)=O)cc3)ccc21,-3.1%,-17.5%,·,2.4%
CCOc1cc(/C=N\NC(=O)CC(=O)NCCc2ccccc2)ccc1O,-0.7%,-21.8%,4.6,2.1%
O=C(CCSc1ccccc1Cl)Nc1cccc([N+](=O)[O-])c1,-62.3%,1.5%,-10.5,-2.3%
O=C(O)/C(=C\c1cccc(OCc2ccccc2)c1)c1ccc(F)cc1,-0.4%,-11.1%,·,1.6%
